High-throughput results (PubChem BioAssay)
Rango dissoc inh: qHTS Assay for Inhibitors of RanGTP induced Rango (Ran-regulated importin-beta cargo) - Importin beta complex dissociation; AID 540253, 2011; Snurportin-1 (Homo sapiens) + GTP-binding nuclear protein Ran (Homo sapiens) + Importin …; Biochemical FRET Rango-importin beta, RanGTP-induced dissociation; 340,000 tested, 0.071% active; Potency, µM (doses to about 46.1 µM), inactives show at the highest dose activity change, negative = inhibition; active means falling FRET ratio curve, often poorly fitted, with flat reads before Ran was added; inconclusive means other falling curves, or compound fluorescence or quenching; inactive means flat or rising ratio curve;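 also: potency is read from the fitted curve at half-maximal effect; % of control where 0% means no effect; nearly all actives have a fitted effect of over 45% in size; -100% = wells without RanGTP and RCC1; the record marks most hits as doubtful in a second field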
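Quantitative HTS using a FRET biosensor: 0.1 uM Rango, 0.25 uM importin beta, 0.6 uM Ran, 2 mM GTP, 0.2 uM RCC1 final, PBS with DTT, Tween-20 and BSA. Post-read taken 45 min after Ran addition.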
miR-21 FLuc: qHTS Assay for Modulators of miRNAs and/orActivators of miR-21; HeLa miR-21 FLuc reporter, luciferase, 48 h; Potency, µM (highest dose often 38.3 µM), for inactives: top-dose reporter change, positive = more light; AID 2288, 2010; 340,000 tested, under 10 active; active = well fitted rising curve with a large enough effect; inconclusive = small, poorly fitted or top-dose-only effect; inactive = no such curve, though single readings can be large or run the other way;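 also: % of control where 0% means no effect; miR-21 action dims this reporter so a rising signal means less miR-21 action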
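Luminescence from a firefly luciferase reporter carrying a miR-21 binding site downstream, stably expressed under a CMV promoter in HeLa cells that make miR-21 endogenously, reports miRNA modulation after 48 h compound exposure up to approximately 40uM final.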
GLA inh pH 4.5: qHTS Assay for Inhibitors of Human alpha-Galactosidase at pH 4.5; AID 1467, 2008; activity change, negative = inhibition, % at 105 µM; Alpha-galactosidase A (Homo sapiens), P06280; purified enzyme, 4-MU-alpha-Gal fluorescence, pH 4.5; 230,000 tested, under 10 active; inconclusive = small, poorly fitted or top-dose-only inhibition, or a rising curve; inactive = flat fitted curve, though single readings scatter; no compound was filed as active;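 also: 0% = full activity with enzyme and -100% = basal without enzyme; dose as in the result columns while the protocol names 77 µM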
Rango complex inh: qHTS Assay for Inhibitors of Rango (Ran-regulated importin-beta cargo) - Importin beta complex formation | AID 540263, 2011 | Rango CFP/YFP FRET sensor + importin beta, 45 min | 340,000 tested, 0.031% active | Potency, µM (titrated, usually from 92.2 µM), for inactives: at the highest dose inhibition of complex formation | Importin subunit beta-1 (Homo sapiens), Q14974; active = rising FRET ratio curve, often small or poorly fitted; inconclusive = mostly compound fluorescence or quenching in the first reads; inactive = flat curves in all reads;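 also: potency is read from the fitted curve at half-maximal effect; 0% = DMSO wells and 100% = buffer wells lacking importin beta; nearly all actives have a fitted effect of over 15% in size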
Target sequence (Q14974 whole entry, looked up): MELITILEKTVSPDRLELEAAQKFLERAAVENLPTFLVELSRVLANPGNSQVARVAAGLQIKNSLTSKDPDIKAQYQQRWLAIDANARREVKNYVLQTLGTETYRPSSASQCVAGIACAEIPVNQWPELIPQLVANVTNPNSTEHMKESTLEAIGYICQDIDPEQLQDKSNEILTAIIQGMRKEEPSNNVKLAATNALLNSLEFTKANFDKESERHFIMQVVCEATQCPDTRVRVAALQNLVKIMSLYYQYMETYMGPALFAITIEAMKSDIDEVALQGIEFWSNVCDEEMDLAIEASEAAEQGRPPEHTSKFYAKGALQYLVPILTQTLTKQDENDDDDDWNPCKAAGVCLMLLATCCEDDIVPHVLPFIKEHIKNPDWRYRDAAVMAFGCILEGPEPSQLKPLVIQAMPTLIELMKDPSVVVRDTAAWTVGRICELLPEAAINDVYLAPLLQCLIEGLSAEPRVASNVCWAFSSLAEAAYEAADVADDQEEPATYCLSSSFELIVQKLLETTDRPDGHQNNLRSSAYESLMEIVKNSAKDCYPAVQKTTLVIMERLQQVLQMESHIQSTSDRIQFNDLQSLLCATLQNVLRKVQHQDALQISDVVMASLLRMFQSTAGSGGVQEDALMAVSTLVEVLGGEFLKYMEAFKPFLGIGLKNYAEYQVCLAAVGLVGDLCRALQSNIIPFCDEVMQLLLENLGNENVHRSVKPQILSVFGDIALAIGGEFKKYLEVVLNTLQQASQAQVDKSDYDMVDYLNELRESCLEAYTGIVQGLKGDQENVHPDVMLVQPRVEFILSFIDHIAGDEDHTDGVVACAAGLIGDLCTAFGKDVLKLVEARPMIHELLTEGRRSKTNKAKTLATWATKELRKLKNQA
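FRET biosensor (snurportin 1 IBB flanked by EYFP and cerulean), 50 nM, with compound 5 min, then 0.125 microM importin beta in PBS, 1 mM DTT, 0.02% Tween-20, 0.1% BSA. CFP/YFP ratio read after 45 min at room temperature; pre-read flags interference.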
* marks the source's active call; other numbers are inactive results; ? = inconclusive; · = not tested or not shown; & = joins results of further samples; [ ] = another dose, or the depositor's remark. The list is partial; rates above refer to the full screens.

miR-21 FLuc	Rango complex inh	Rango dissoc inh	GLA inh pH 4.5	structure
0%	-3.6%	-4%	-10	CC1CCN(C2(O)C(=O)Nc3ccc([N+](=O)[O-])cc32)CC1 (centres undefined)
-6%	2.1%	-10%	-2	CN1CC(=O)N(CC(=O)Nc2ccc(N(C)C)cc2)c2ccccc2C1=O
0%	0.4%	1%	13	CC(=O)Nc1ccc(S(=O)(=O)NC(C(=O)O)C(C)O)cc1 (centres undefined)
0%	-4.1%	13%	·	CCOc1cc(C(=O)NC(=S)Nc2nc(C)cc(C)n2)cc(OCC)c1OCC
1%	-1.8%	1%	0	CC(C)C(=O)OC1CCS(=O)(=O)c2sccc21 (centres undefined)
0%	-0.1%	-2%	-7	COc1ccc(N(CC(=O)NCCSCc2ccco2)S(=O)(=O)c2ccc(C)cc2)cc1
12%	0.9%	23%	-7	CCCn1c(=N)n(CC(O)COc2ccc(C)cc2)c2ccccc21 (centres undefined)
-19%	2.7%	-5%	0	O=C(COC(=O)c1cc([N+](=O)[O-])ccc1NCCO)c1ccccc1
-41%	-3.0%	-12%	6	Brc1cccc(-c2nc(-c3ccncc3)no2)c1
-11%	-1.1%	10%	2	O=C(O)CCC(=O)N1N=C(c2ccccc2)CC1c1cccs1 (centres undefined)
23%	-0.3%	-4%	-18	COc1ccc(S(=O)(=O)N(CC(=O)N2CCN(c3ccccc3OC)CC2)c2ccccc2)cc1
-17%	-3.5%	-1%	·	COc1cc(OC)c(C(=O)Nc2cccnc2)cc1OC
1%	-0.8%	?	·	COc1cc(OC)cc(C(=O)NCC(=O)Nc2ccc(C)c(Cl)c2)c1
-4%	1.5%	35%	6	COc1ccc(/C(N)=N/OC(=O)c2ccc(C)c([N+](=O)[O-])c2)cc1
-9%	-0.3%	12%	·	CCN1CCN(CC(=O)Nc2c(OC)cccc2OC)CC1
-1%	-1.2%	-1%	3	COCCNC(=O)C(=O)NNS(=O)(=O)c1ccc2ccccc2c1
-16%	-2.3%	18%	·	Cc1ccc(Cl)cc1NS(=O)(=O)Cc1ccccc1
3%	0.0%	-4%	·	COc1ccc(NC(=O)CN(C)C(=O)CCNS(=O)(=O)c2ccc(Br)cc2)cc1
-1%	0.9%	-16%	3	CC(/C=N/NC(=O)c1cc(C(C)C)[nH]n1)=C\c1ccccc1
1%	0.1%	3%	1	Cc1cc(C)nc(/N=C(/NC(=O)c2ccccc2)Nc2ccccc2)n1
-4%	-1.0%	16%	1	COc1cnc(-c2ccccn2)nc1Sc1ccc(Cl)cc1
-4%	-6.9%	9%	0	CCC(C)(C)NC(=O)C(c1ccco1)N(C(=O)CNC(=O)c1cccs1)c1cccnc1 (centres undefined)
·	-3.3%	-5%	·	CCCCn1c(N)c(N(CC(C)C)C(=O)CN2C(=O)NC3(CC(C)CC(C)(C)C3)C2=O)c(=O)[nH]c1=O (centres undefined)
?	6.4%	16%	-8	O=C(CCCN1C(=O)/C(=C\c2ccccc2)SC1=S)Nc1ccc(O)cc1
-20%	0.1%	7%	-2	CC1CCCCN1C(=O)CSc1ccc(-c2ccc(F)cc2)nn1 (centres undefined)

Part of the list above in order of molecular weight, lowest first.
miR-21 FLuc	Rango complex inh	Rango dissoc inh	GLA inh pH 4.5	structure
-16%	-2.3%	18%	·	Cc1ccc(Cl)cc1NS(=O)(=O)Cc1ccccc1
12%	0.9%	23%	-7	CCCn1c(=N)n(CC(O)COc2ccc(C)cc2)c2ccccc21 (centres undefined)
-19%	2.7%	-5%	0	O=C(COC(=O)c1cc([N+](=O)[O-])ccc1NCCO)c1ccccc1
?	6.4%	16%	-8	O=C(CCCN1C(=O)/C(=C\c2ccccc2)SC1=S)Nc1ccc(O)cc1
·	-3.3%	-5%	·	CCCCn1c(N)c(N(CC(C)C)C(=O)CN2C(=O)NC3(CC(C)CC(C)(C)C3)C2=O)c(=O)[nH]c1=O (centres undefined)

Later entries
miR-21 FLuc	Rango complex inh	Rango dissoc inh	GLA inh pH 4.5	structure
0%	·	·	10	CN(C)c1ccc2c3c(cccc13)C(=O)N(c1ccccc1)C2=O
-11%	-0.4%	13%	·	COc1cccc(C(=O)NC(C)CCc2ccccc2)c1 (centres undefined)
2%	0.7%	-13%	-4	O=S(=O)(NCc1c(Cl)cccc1Oc1ccccc1)c1ccc(F)cc1
-4%	-1.2%	-15%	·	Cc1c(C)c2cc(Cl)c(OCC(=O)NCCCn3ccnc3)cc2oc1=O
-2%	0.2%	-2%	3	CCOc1ccc(C(N)=O)cc1OC
-1%	1.2%	-6%	-5	Nc1nc(CN2CCN(c3ccccn3)CC2)nc(Nc2ccc(F)cc2)n1
-1%	2.3%	-9%	·	COC(=O)C1=CN(c2ccc(F)cc2)C=C(C(=O)OC)C1c1ccc([N+](=O)[O-])cc1
-27%	0.7%	-5%	-18	c1cncc(-c2nc3ccccn3c2Nc2ccc3c(c2)OCCO3)c1
23%	0.9%	3%	-8	COc1ccc(N(Cc2ccccc2)C(=O)c2ccccc2[N+](=O)[O-])cc1
0%	1.9%	-5%	10	COc1ccc(N2CCN(CCCNS(=O)(=O)c3ccc4c(c3)oc(=O)n4C)CC2)cc1
-2%	1.1%	-8%	·	CN1C(=O)c2ccc(C(=O)NCc3ccco3)cc2C1=O
0%	-4.9%	0%	-14[21.1 µM]	O=C(/C=C/c1ccccc1)Oc1cccc(C(=S)N2CCOCC2)c1
-2%	1.1%	-5%	1	CCOCCCNC(=O)C(NC(=O)c1cnccn1)c1ccc(OC)cc1 (centres undefined)
6%	5.1%	-2%	-6	O=C(NCc1nnc(SCc2ccc(F)cc2)n1-c1ccc(F)cc1)C12CC3CC(CC(C3)C1)C2
-1%&-3%	-1.6%&0.8%	9%&-3%	-7&-4	O=C(O)CCCNC(=O)C(c1ccccc1)c1ccccc1
·	2.8%	-3%	·	Cc1noc(C)c1S(=O)(=O)N(C)C[C@H]1Oc2ccc(NC(=O)CCC(F)(F)F)cc2C(=O)N([C@H](C)CO)C[C@@H]1C
0%	-0.8%	-2%	·	COc1ccc(S(=O)(=O)N2CCN(C(=S)Nc3ccc(S(N)(=O)=O)cc3)CC2)cc1
-1%	-0.1%	-15%	1	COC(=O)c1oc2ccc(Cl)cc2c1-n1cccc1
3%	-1.4%	0%	-12	CC(=O)Nc1c2c(nn1-c1cccc(Cl)c1)CS(=O)C2 (centres undefined)
-5%	0.7%	11%	·	O=C(NCCN1CCCC1)C(c1ccccc1)c1ccccc1
-12%	0.7%	-5%	1	O=C(NCc1ccco1)C1CC(c2ccc(F)cc2)=NO1 (centres undefined)
·	-1.5%	6%	·	COc1ccc2ccccc2c1/C=N\NC(=O)c1cccnc1
3%	0.7%	14%	-1	COC(=O)CNC(c1ccccc1)c1cc(C)ccc1NC(=O)c1cccc(Cl)c1 (centres undefined)
-10%	0.1%	-1%	3	Cc1ccc(CC2SC(=O)NC2=O)cc1Cl (centres undefined)
·	6.5%	13%	·	CC(C)CN(CC(C)C)c1nn[nH]n1

Full records as entered above. Values in the order: miR-21 FLuc | Rango complex inh | Rango dissoc inh | GLA inh pH 4.5
Cc1noc(C)c1S(=O)(=O)N(C)C[C@H]1Oc2ccc(NC(=O)CCC(F)(F)F)cc2C(=O)N([C@H](C)CO)C[C@@H]1C in the list: · | 2.8% | -3% | ·
CC(=O)Nc1c2c(nn1-c1cccc(Cl)c1)CS(=O)C2 (centres undefined) in the list: 3% | -1.4% | 0% | -12
O=C(COC(=O)c1cc([N+](=O)[O-])ccc1NCCO)c1ccccc1 in the list: -19% | 2.7% | -5% | 0

(cont.)
miR-21 FLuc	Rango complex inh	Rango dissoc inh	GLA inh pH 4.5	structure
-3%	1.7%	0%	0	N#CCSc1nc2scc(-c3cccs3)c2c(=O)n1CCc1ccccc1
0%	3.4%	-12%	4	CCOc1ccc(-c2nnc3sc(COc4ccc(Cl)cc4)nn23)cc1
0%	3.3%	1%	2	O=C(O)C1C2C=CC(C2)C1C(=O)NCc1cccs1 (centres undefined)
-22%	0.2%	6%	-3	COc1cc2c(cc1NC(=O)CSc1cccc[n+]1[O-])oc1ccccc12
3%	?	4%	3	O=C(NCCCN1CCCC1=O)C1CCCO1 (centres undefined)
-4%	?	?	-21	Cc1ccc(Nc2nnc(SC/C(O)=C(\C#N)c3nc4ccccc4[nH]3)s2)c(C)c1
-4%&-12%	0.1%	17%	·	O=C(COc1ccc(F)cc1)Nc1nnc(S(=O)(=O)N2CCCC2)s1
4%	-1.0%	4%	·	CN(C)S(=O)(=O)N(CC(=O)Nc1ccc(S(=O)(=O)N2CCCC2)cc1)c1ccccc1
-3%	-0.7%	-6%	9	COc1cc(OC)nc(NC(=O)COC(=O)c2cccc(Cl)c2)n1
·	0.0%	-9%	·	Cc1nc(SCC(=O)N(CC(C)C)C2CCS(=O)(=O)C2)c2c(C)c(C)sc2n1 (centres undefined)
1%	-2.0%	-9%	?	Cc1cn2c(-c3ccncc3)nnc2s1
-9%	2.1%	-5%	0	Cc1ccc(CNC(=O)CCn2nc(-c3ccc(Cl)cc3)ccc2=O)cc1
2%	-6.4%	-14%	1&-1	COC(=O)CCCC1=CC2=CC(=O)C(C)(OC(=O)c3cccs3)C(=O)C2=CN1CCc1c[nH]c2ccccc12 (centres undefined)
0%	5.4%	-7%	·	CCn1cc(C(=O)NCCCOC(C)C)c(=O)c2cc(S(=O)(=O)N3CCC(C)CC3)ccc21
3%	-1.8%	0%	-8	Cc1cc(C(=O)OCC(=O)Nc2ccccc2[N+](=O)[O-])c2ccccc2n1
-13%	-2.9%	-12%	-9	Cc1coc2c1C(=O)C(=O)c1c-2ccc2c(C)cccc12
-1%	0.1%	10%	-1	CCN(CC)S(=O)(=O)c1ccc(N2CCOCC2)c(NC(=O)c2c3c(nc4ccccc24)CCC3)c1
9%	-1.7%	8%	·	O=C(NCc1ccccc1F)C1CCCN(C(=O)Nc2ccccc2)C1 (centres undefined)
·	-0.5%	20%	·	CCN(CC)C(=O)c1cccc(NC(=O)c2ccccc2OCc2c(C)noc2C)c1
2%&-1%	0.5%	11%	·	COCCNC(=O)Cn1cnc2sc(C)c(S(=O)(=O)N3CCN(c4ccccc4OC)CC3)c2c1=O
-3%	?	?	·	CN(c1nc2ccccc2[nH]c1=O)C1CCCCC1
·	0.0%	1%	·	CC(=O)c1ccc(NC(=O)c2ccc(-n3cnnn3)cc2)cc1
15%	-1.4%	1%	12	Cc1cc(C)c(C)c(S(=O)(=O)Nc2ccc(C(N)=O)cc2)c1C
-6%	-3.8%	7%	-2	O=C(CCc1nc(-c2ccccc2F)no1)NC1CCN(Cc2ccccc2)CC1
-10%	1.3%	-3%	·	CC(C)CN(Cc1c(O)ccc2c(=O)c(-c3ccccc3)coc12)CC(C)C
-5%	-4.1%	12%	·	OC(CCN1CCOCC1)c1ccccc1 (centres undefined)
·	-2.6%	-4%	·	O=C(CCc1nc2sc3c(c2c(=O)[nH]1)CCCC3)Nc1cccc(Cl)c1
6%	0.6%	6%	·	CCc1ccc(S(=O)(=O)N2CCCC(N3CCN(c4ccc(OC)cc4)CC3)C2)cc1 (centres undefined)
7%&9%	-5.0%	-7%	·	COc1ccc(C(CNC(=O)COc2ccc(C)c(C)c2)N2CCCCC2)cc1 (centres undefined)
